D2 PAM – potentiates the human D2 dopamine receptor allosterically | potentiation, % (concentration not given with the values) | AID 624464 | P14416 | 360,000 tested, 0.23% active | DiscoveRx D2 beta-arrestin cells, luminescence, 90 min; 100% = 57 uM dopamine signal; active = potentiation of 50% or more; inconclusive = 30% to 50%; inactive = 30% or less;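 further: compound concentration not given in the record; tested on top of an EC20 dose of dopamine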
Target sequence (P14416 whole entry, looked up): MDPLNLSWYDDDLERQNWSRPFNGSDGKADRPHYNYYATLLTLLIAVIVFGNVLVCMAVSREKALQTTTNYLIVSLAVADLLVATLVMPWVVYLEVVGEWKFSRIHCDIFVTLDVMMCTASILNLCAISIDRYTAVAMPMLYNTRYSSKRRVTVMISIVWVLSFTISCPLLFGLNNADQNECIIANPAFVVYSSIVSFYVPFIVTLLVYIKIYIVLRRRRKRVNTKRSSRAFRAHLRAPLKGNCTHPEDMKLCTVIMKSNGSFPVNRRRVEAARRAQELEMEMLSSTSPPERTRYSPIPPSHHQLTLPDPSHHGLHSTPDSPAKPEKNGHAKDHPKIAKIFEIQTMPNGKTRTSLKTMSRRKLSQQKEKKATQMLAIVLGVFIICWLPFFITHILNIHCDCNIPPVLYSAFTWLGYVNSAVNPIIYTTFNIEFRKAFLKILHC
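PathHunter beta-arrestin assay in DiscoveRx D2 cells. Compounds were added with an EC20 of dopamine (50 nM final) for 90 min at 37 deg C. Luminescence was read 1 h after detection reagent, with 57 uM dopamine as the EC100 control.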
D2 agonist – agonists of human D2 dopamine receptor (beta-arrestin). P14416. DiscoveRx PathHunter D2 beta-arrestin, luminescence, 90 min; 100% = 57 uM dopamine signal. activation, % (concentration not given with the values). 360,000 tested, 0.084% active; in the data active = activation above about 40%; inconclusive = about 15% to 40%; inactive = below about 15%; further: compound concentration not given in the record; the text of the record calls up to 30% inactive
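DiscoveRx PathHunter D2 beta-arrestin cells (2,100/well) attached overnight, then compound-stimulated 90 min at 37 C in HBSS/10 mM HEPES/0.1% Tween-20 buffer; beta-galactosidase complementation read by luminescence after 1 h at ambient temperature. Dopamine 57 uM final (EC100) as control.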
TRPML1 ag – human mucolipin-1 channel agonism. TRPML1-expressing cells, Ca2+ dye fluorescence, FDSS; host cell line not named in the record; reference of the full effect not given here. Q9GZU1. activation, % (test concentration not listed). 410,000 tested, 0.12% active; in the data active = activation above about 50%; inconclusive = about 30% to 50%; inactive = below about 30%; further: 0% is about no effect; the text of the record puts the active cut at 80%
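Cells: TRPML1-DL, 1X Tet inducer, ~16 h at 37 degrees C/5% CO2. Dye: ABD Ca8 no-wash + quencher, 45-90 min RT. Read: 10 s baseline, compound add, 110 s agonist phase; 54-4 EC80 (4uM final), 110 s antagonist phase.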
PINK1 expr mod – PINK1 expression modulation | AID 624263 | PINK1 immunofluorescence, high-content cytometry, 24 h | 410,000 tested, 0.2% active | Potency, µM (series often up to 76.6 µM), for the others: at the highest dose activation (PINK1 increase), most hits filed as activators; active = well fitted activation curve with a large enough effect; inconclusive = small, poorly fitted or top-dose-only effect; inactive = flat fitted curve, though single readings scatter; cell line not stated here;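 further: potency means the concentration at half of the fitted maximal effect; % of control where 0% means no effect; nearly all actives have a fitted effect of over 65% in size; a mitochondrial uncoupler was the plate control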
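Compound titrations (5 concentrations, 24 h) on a stable cell line; DMSO and CCCP controls. Endpoint: fixed-cell PINK1 immunofluorescence with mitochondrial, cell and nuclear markers, scanned by microplate cytometer.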
Six1-Eya2 blk – inhibitors of human Six1/Eya2 interaction | AlphaScreen GST-Six1/His-Eya2 binding, biochemical; active compounds read low; control for the full effect not named in the record | activity change, % (no concentration beside the values) | AID 651725 | 360,000 tested, 0.56% active | Q15475+O00167; in the data active = activity change below about -65%; inconclusive = about -30% to -65%; inactive = above about -30%; further: on the % scale 0 is the no-effect control and ±100 the full control effect
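GST-Six1 + His-Eya2 (5X stock: 250/500 nM); Tris pH 8.0, 300 mM NaCl, 0.05% BSA, 0.02% Tween 20; GSH donor/Ni acceptor beads; 1 h 37 °C dark; AlphaScreen readout.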
TRPML1 inh – human mucolipin-1 channel inhibition | Q9GZU1 | TRPML1-inducible cells, Ca2+ dye fluorescence, FDSS; active compounds read low; inhibition of EC80 agonist-evoked calcium signal | activity change, negative = inhibition, % (no concentration beside the values) | 390,000 tested, 0.02% active; in the data active means activity change below about -50%; inconclusive means about -30% to -50%; inactive means above about -30%;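 further: stimulus is agonist 54-4 at its EC80 concentration; on the % scale 0 is the no-effect control and ±100 the full control effect; compound concentration not given in the record; the text of the record puts the active cut at -80%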
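Tet-induced TRPML1-DL cells loaded with Ca8 no-wash calcium dye were read kinetically on FDSS. Compound addition was followed by EC80 agonist 54-4 (4 uM final); inhibition was read over 110 s.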
* hit, by the source's call; ? = inconclusive; nt = not tested or not shown; [ ] = another dose, or the depositor's remark.

item	Molecule	D2 PAM	D2 agonist	TRPML1 ag
1	CC1CCCN(c2ccc(C(=O)NCc3ccco3)cc2[N+](=O)[O-])C1 (stereo not given)	-7	-6.7	0.4
2	O=C(COc1ccc2ccccc2c1Br)N1CCN(c2ccccn2)CC1	-2	-2.1	2.3
3	CN1C(=O)C(CC(=O)Nc2ccc(F)cc2)N(CCCc2ccccc2)C1=S (stereo not given)	9	1.1	12
4	COc1ccc(C(OC(=O)c2ccco2)C(=O)NC2CCCCC2)cc1 (stereo not given)	-1	-2.2	0.0
5	CCN1CCN(c2ccc(S(=O)(=O)N3CCOCC3)cc2NC(=O)CCC(C)C)CC1	-1	-4.7	1.0
6	O=C(NCCc1ccccc1)c1c2c(nc3ccccc13)C(=O)N(C1CCCCC1)C2	nt	nt	0.8
7	CCOc1ccc(CNC(=O)C(C)n2ccc3cc(S(=O)(=O)N4CCCC4)ccc32)cc1 (stereo not given)	-10	0.7	2.1
8	Clc1nc(N2CCOCC2)ncc1Br	-2	-3.2	-0.5

item	PINK1 expr mod	Six1-Eya2 blk	TRPML1 inh
1	0.2%	?	39
2	-3.8%[38.3 µM]	1	56
3	?	1	-8
4	1.5%	-3	-11
5	0.6%	4	7
6	1.6%	nt	4
7	2.0%	3	-6
8	0.6%	3	-8

(more compounds)
item	Molecule	D2 PAM	D2 agonist	TRPML1 ag
9	COc1ccc(NC(=O)Cn2c(=O)n(Cc3ccco3)c(=O)c3oc4ccccc4c32)cc1Cl	nt	nt	-0.2
10	COc1ccc(CCNC(=O)c2cccc(S(=O)(=O)N3CCCC3)c2)cc1OC	-12	-6.5	1.4
11	CC1(c2nnc(-c3cccc(Cl)c3)o2)CC(c2ccc(F)cc2)=NO1 (stereo not given)	-51	-2.0	-0.2
12	COc1cc(OC)cc(C(=O)N2CCN(c3ccccc3F)CC2)c1	-7	-2.7	-0.9
13	COc1cccc(CNC(=O)CCC(=O)N2CC(C)Sc3ccccc32)c1 (stereo not given)	nt	nt	1.1
14	COc1ccc(-n2nc3c(c2NC(=O)C(=O)N2CCN(C)CC2)CSC3)cc1	nt	nt	0.8
15	Cc1ccc(NC(=O)c2oc3ccccc3c2COC(C)C)cc1S(=O)(=O)N1CCOCC1	-8	-5.8	1.0
16	CN(C)c1ccc(/C=N/N2CCN(Cc3ccccc3Cl)CC2)cc1	-5	-6.9	0.3

item	PINK1 expr mod	Six1-Eya2 blk	TRPML1 inh
9	0.7%	nt	-3
10	4.5%	-2	-5
11	1.9%	10	-1
12	3.9%	6	-11
13	2.4%	nt	20
14	1.2%	nt	8
15	3.1%	-19	15
16	0.9%	-7	-8

(more compounds)
item	Molecule	D2 PAM	D2 agonist	TRPML1 ag
17	CC1CCN(c2c(NCc3ccc(C(=O)N4CCN(C5CCCCC5)CC4)cc3)c(=O)c2=O)CC1	-8	-3.1	-0.6
18	CCCn1nnc2c(=O)oc3ccccc3c21	-5	-1.1	-0.2
19	CCOC(=O)c1cc2c(=O)n3ccccc3nc2n(CC2CCCO2)c1=NC(=O)c1ccccc1Br (stereo not given)	nt	nt	-0.2
20	Cc1cc(Cl)ccc1OCC(=O)Nc1ccc2oc(=O)ccc2c1	4	2.3	-0.4
21	CN(CCc1ccccn1)C(=O)CCNC(=O)Cn1cnc2ccccc2c1=O	0	-0.2	0.1
22	COc1ccc(N2CC(C(=O)Nc3ccc4c(c3)OCO4)CC2=O)cc1 (stereo not given)	-8	-3.7	0.9
23	CCCCN1C(=O)C(=O)N(CC(=O)Nc2cc(S(=O)(=O)N(C)C)ccc2C)C1=O	-5	-0.1	1.1
24	[O-]/C(=C(\C(=S)Nc1cccc2ccccc12)[n+]1cccc(CO)c1)c1ccc(Cl)s1	-4	0.8	-0.2

item	PINK1 expr mod	Six1-Eya2 blk	TRPML1 inh
17	2.2%	-8	1
18	2.9%	1	11
19	3.7%	nt	-18
20	7.3%	10	-8
21	-1.2%	8	16
22	-2.7%	-10	-8
23	-0.1%	-3	-11
24	3.0%	-8	6

(more compounds)
item	Molecule	D2 PAM	D2 agonist	TRPML1 ag
25	O=C(CCCN1C(=O)/C(=C\c2cccs2)SC1=S)Nc1cc([N+](=O)[O-])ccc1O	-7	-3.4	0.6
26	COc1ccc(-c2nc3sc(CCNC(=O)c4ccc(C(C)(C)C)cc4)c(C)n3n2)cc1	nt	nt	-0.2
27	COc1ccc(OC)c(NC(=O)CCS(=O)(=O)c2cc3c(cc2C)NC(=O)CO3)c1	-3	-3.4	0.3
28	COC(=O)c1ccc(N(CC(=O)NC2CCCC2)C(=O)CNC(=O)c2ccco2)cc1	-7	-3.9	-0.7
29	COC(=O)Cc1sc(-c2ccccn2)nc1-c1ccccc1	1	-3.9	-1.4
30	N/C(=N\N=C\c1ccc2c(c1)OCO2)SC1CC(=O)N(c2ccc(C(=O)O)cc2)C1=O (stereo not given)	-1	-1.3	0.4
31	CN1CCN(C(=O)Cn2c(-c3cccs3)cc3cc(Cl)ccc32)CC1	nt	nt	2.8
32	COc1cc(CNCCc2ccc(S(N)(=O)=O)cc2)ccc1OCC(=O)NC1CCCCC1	-4	-2.1	2.8

item	PINK1 expr mod	Six1-Eya2 blk	TRPML1 inh
25	15%	-1	14
26	2.2%	nt	1
27	-0.3%	-2	4
28	-0.5%	-2	-1
29	-0.4%	11	-14
30	1.0%	-2	-14
31	-2.2%	nt	-5
32	1.3%[38.3 µM]	-1	5

Continuation:
item	Molecule	D2 PAM	D2 agonist	TRPML1 ag
33	COc1cc2c(cc1OC)CC(C(=O)NCc1ccccc1)NC2 (stereo not given)	-2	5.3	-0.5
34	COc1ccc(C)cc1S(=O)(=O)n1cnc(C)c1	0	-6.0	-0.6
35	CCc1nc(SCC(=O)Nc2cc(C)on2)c2c(=O)n(C)c(=O)n(C)c2n1	-7	-6.9	-0.1
36	CN(C)c1nc(Oc2ccc(=O)n(-c3ccccc3)n2)nc(N2CCOCC2)n1	-9	-1.2	2.1
37	CCCCN(CC)C(=O)Cn1cnc2sc(C)c(S(=O)(=O)N3CCC(C)CC3)c2c1=O	-9	-4.9	0.6

item	PINK1 expr mod	Six1-Eya2 blk	TRPML1 inh
33	0.8%	-1	-1
34	-1.2%	-10	-11
35	6.6%	2	3
36	-0.9%	0	-10
37	3.8%	0	4

Grouped by structure: the compounds so far containing a Cl atom (seven)
item	Molecule	D2 PAM	D2 agonist	TRPML1 ag
8	Clc1nc(N2CCOCC2)ncc1Br	-2	-3.2	-0.5
9	COc1ccc(NC(=O)Cn2c(=O)n(Cc3ccco3)c(=O)c3oc4ccccc4c32)cc1Cl	nt	nt	-0.2
11	CC1(c2nnc(-c3cccc(Cl)c3)o2)CC(c2ccc(F)cc2)=NO1 (stereo not given)	-51	-2.0	-0.2
16	CN(C)c1ccc(/C=N/N2CCN(Cc3ccccc3Cl)CC2)cc1	-5	-6.9	0.3
20	Cc1cc(Cl)ccc1OCC(=O)Nc1ccc2oc(=O)ccc2c1	4	2.3	-0.4
24	[O-]/C(=C(\C(=S)Nc1cccc2ccccc12)[n+]1cccc(CO)c1)c1ccc(Cl)s1	-4	0.8	-0.2
31	CN1CCN(C(=O)Cn2c(-c3cccs3)cc3cc(Cl)ccc32)CC1	nt	nt	2.8

item	PINK1 expr mod	Six1-Eya2 blk	TRPML1 inh
8	0.6%	3	-8
9	0.7%	nt	-3
11	1.9%	10	-1
16	0.9%	-7	-8
20	7.3%	10	-8
24	3.0%	-8	6
31	-2.2%	nt	-5
